Assay outcomes: PubChem BioAssay, ICCB-Longwood Screening Facility, Harvard Medical School
PV pol inh: poliovirus RdRp elongation inhibitors, primary screen, biochemical, fluorescence polarization, total intensity | Genome polyprotein (Poliovirus type 1 (strain Mahoney)), P03300 | poliovirus polymerase elongation; active compounds read low | % elongation, % (compound at 16.7 µg/mL) | 0.66% of 150,000 active | AID 588519, 2011; in the data active = % elongation below about 90%; note: some results filed as inactive read as strong as hits
Target sequence (P03300 1749-2209 limits assumed): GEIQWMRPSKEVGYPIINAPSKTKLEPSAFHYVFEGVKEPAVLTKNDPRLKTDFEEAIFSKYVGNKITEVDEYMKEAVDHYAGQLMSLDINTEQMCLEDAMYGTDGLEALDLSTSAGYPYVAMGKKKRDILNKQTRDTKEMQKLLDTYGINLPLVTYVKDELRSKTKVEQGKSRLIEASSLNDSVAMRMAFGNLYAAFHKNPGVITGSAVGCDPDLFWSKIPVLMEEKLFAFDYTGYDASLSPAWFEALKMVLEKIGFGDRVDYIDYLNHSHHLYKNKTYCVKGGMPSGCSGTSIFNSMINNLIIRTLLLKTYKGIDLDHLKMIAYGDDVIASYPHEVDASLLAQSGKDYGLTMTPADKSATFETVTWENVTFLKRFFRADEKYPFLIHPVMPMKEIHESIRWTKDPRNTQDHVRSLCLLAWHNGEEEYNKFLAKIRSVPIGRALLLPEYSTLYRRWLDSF
Mtb MbtI inh: MbtI salicylate synthase inhibitors, primary screen, biochemical, fluorescence intensity; 0.89% of 100,000 active; purified MbtI enzyme, fluorescence intensity read-out; P9WFX0; inhibition, %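 (about 17 µg/mL by stock and volumes)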;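 active = above 50% in both replicates, above 80% if mildly self-fluorescent; inactive = the rest, strongly fluorescent compounds included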;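 note: 0% = mean of negative and 100% = mean of positive controls; one replicate is shown; some compounds called inactive have numbers as strong as hits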
Target sequence (P9WFX0 whole entry, looked up): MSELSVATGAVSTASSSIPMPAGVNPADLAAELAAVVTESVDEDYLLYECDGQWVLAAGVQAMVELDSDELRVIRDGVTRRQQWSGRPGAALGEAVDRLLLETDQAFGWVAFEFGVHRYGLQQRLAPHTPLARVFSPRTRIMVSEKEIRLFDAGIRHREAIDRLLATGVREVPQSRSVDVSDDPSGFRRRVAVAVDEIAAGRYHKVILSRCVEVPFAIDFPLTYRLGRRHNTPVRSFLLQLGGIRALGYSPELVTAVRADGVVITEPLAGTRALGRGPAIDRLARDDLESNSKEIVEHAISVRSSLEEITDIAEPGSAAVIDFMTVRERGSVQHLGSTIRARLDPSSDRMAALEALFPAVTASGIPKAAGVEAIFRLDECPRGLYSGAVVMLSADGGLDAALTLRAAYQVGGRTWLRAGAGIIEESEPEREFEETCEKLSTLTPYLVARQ
Mtb MenB inh: M. tuberculosis MenB inhibitors, primary screen, biochemical, absorbance | 1,4-dihydroxy-2-naphthoyl-CoA synthase (Mycobacterium tuberculosis (strain ATCC 25618 / … | MenB enzyme assay, absorbance read-out; some hits fall short of the stated cut | inhibition, %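 (about 12 µg/mL by stock and volumes)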 | 0.43% of 100,000 active;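 active = mean of two replicates above 30%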;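 note: 0% = no compound and 100% = wells with inactive enzyme; the first replicate is given; strong numbers were not always called active; inactives centre near -10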
PV pol inh intensity: also measured in PV pol inh; calls as there; % elongation; measured here: total intensity read-out; formula for this scale not given here;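 total fluorescence in place of polarization; lower means less elongation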
Starred values were filed as active, the others as inactive; x = no result given; & = joins results of further samples.

Start of the data: the first 3 compounds, ahead of the listing:
SMILES | PV pol inh | PV pol inh intensity | Mtb MbtI inh | Mtb MenB inh
CCN1C(=O)c2ccc(C(=O)Nc3ccc(O)cc3C)cc2C1=O | 100 | 101 | 0 | -16
O=C(Cn1c2c(c(-c3ccccc3Cl)cc1=O)CCC2)NCc1cccs1 | 103 | 102 | -32 | -2
O=C1C(=O)c2ccccc2C(O)=C1C1CCC(c2ccc(Cl)cc2)CC1 (configuration not stated) | 102&99 | 102&100 | -34&-10 | -1&2

Main list, repeating the preview:
SMILES | PV pol inh | PV pol inh intensity | Mtb MbtI inh | Mtb MenB inh
CCN1C(=O)c2ccc(C(=O)Nc3ccc(O)cc3C)cc2C1=O | 100 | 101 | 0 | -16
O=C(Cn1c2c(c(-c3ccccc3Cl)cc1=O)CCC2)NCc1cccs1 | 103 | 102 | -32 | -2
O=C1C(=O)c2ccccc2C(O)=C1C1CCC(c2ccc(Cl)cc2)CC1 (configuration not stated) | 102&99 | 102&100 | -34&-10 | -1&2
Cc1c(NC(=O)O/N=C(/N)c2ccccc2)sc2nc(-c3ccc(Cl)cc3)nn12 | 103 | 106 | 83 | -14
CCOC(=O)CSc1nnc(-c2ccccc2NC(=O)c2ccccc2)o1 | 102 | 99 | -18 | -41
O=C(CSc1ccc(-c2cccs2)nn1)c1cccs1 | 98 | 107 | 18 | -17
O=C(O)Cc1ccc2c(c1)CCCC2 | 92 | 100 | 63 | -20
CS(=O)(=O)c1ccc(Cl)c(C(=O)OCc2nc3ccccc3s2)c1 | 99 | 101 | -7 | -28
CC[n+]1c(C)csc1Nc1ccc(N2CC(C)OC(C)C2)cc1 (configuration not stated) | 107 | 103 | -3 | -17
COC(=O)C1CCN(C(=O)Cc2ccc(C)cc2)CC1 | 83* | 65* | -1 | -9
O=C(CN1C(=O)CSc2ccccc21)N/N=C/c1cccnc1 | 95 | 97 | 10 | 8
Cc1nn(Cc2cccc(C(=O)NC(=O)Nc3ccc(Cl)cc3)c2)c(C)c1Br | 106 | 114 | -14 | 6
c1ccc(C2=Nn3c(nnc3C3COc4ccccc4O3)SC2)cc1 (configuration not stated) | 94 | 93 | -39 | 13
CCCCN(C1=NC2CS(=O)(=O)CC2S1)c1ccc(Cl)cc1 (configuration not stated) | 104 | 109 | -4 | -17
COc1ccc(CNC(=O)C(NS(=O)(=O)c2ccc3c(c2)oc(=O)n3C)C(C)C)cc1 (configuration not stated) | 99 | 103 | -12 | -8
O=C(Nc1ccc(CN2CCCCC2)cc1)c1cccnc1Cl | 102 | 104 | 1 | -50
O=C(Cc1csc(-c2ccccc2)n1)N(Cc1ccco1)Cc1cccs1 | 97 | 92 | 52 | -43
O=C(CSc1nnc(C2CC2)n1Cc1ccccc1)c1cc2ccccc2o1 | 114 | 117 | 8 | -72
Cc1nn(-c2ccccc2)c2nc(Cl)c(C(=O)O)cc12 | 103 | 105 | 18 | x
Cc1ccc(S(=O)(=O)/N=C(/CN2CCOCC2)N2CCN(S(=O)(=O)c3ccc(C)cc3)C2C)cc1 (configuration not stated) | 104 | 101 | -6 | -8
COc1ccc(NC(=O)c2ccccc2I)cn1 | 102 | 99 | -5 | x
c1ccc(NCc2ccc3c(c2)OCO3)nc1 | 100 | 95 | -9 | -18
COc1ccc(NC(=O)c2cccc(Br)c2)cn1 | 98 | 106 | 9 | 11
CC12CN3CC(C)(C1=O)C(=O)C(C)(C3)C2=O | 91 | 96 | -10 | -22
CN(C)C(CN)c1ccccc1 (configuration not stated) | 103 | 106 | -5 | -9
CC(c1ccco1)N(C(=O)c1ccc(C#N)cc1)c1ccccn1 (configuration not stated) | 98 | 98 | 0 | x
COc1cc(-c2cc(OC)c(C)cc2OC)c(OC)cc1C | 106 | 111 | -10 | 12
O=C(CN1C(=O)c2ccccc2C1=O)c1ccc(O)cc1O | 102 | 108 | 12 | 0
CS(=O)(=O)Nc1ccc2c(c1)COC2=O | x | x | 32 | 18
N#CCCOc1ccccc1 | 99 | 97 | -12 | 6

Single records (already shown). Screens in order: PV pol inh | PV pol inh intensity | Mtb MbtI inh | Mtb MenB inh
`COc1ccc(NC(=O)c2cccc(Br)c2)cn1` is listed as 98 | 106 | 9 | 11
`COc1ccc(NC(=O)c2ccccc2I)cn1` is listed as 102 | 99 | -5 | x
`O=C(CN1C(=O)c2ccccc2C1=O)c1ccc(O)cc1O` is listed as 102 | 108 | 12 | 0
`CC(c1ccco1)N(C(=O)c1ccc(C#N)cc1)c1ccccn1` (configuration not stated) is listed as 98 | 98 | 0 | x
`CN(C)C(CN)c1ccccc1` (configuration not stated) is listed as 103 | 106 | -5 | -9

Continued.
SMILES | PV pol inh | PV pol inh intensity | Mtb MbtI inh | Mtb MenB inh
N#C/C(=C(/O)CN1CCN(S(=O)(=O)c2ccccc2C#N)CC1)c1nc2ccccc2[nH]1 | 108 | 112 | 16 | -28
CC(N=C1NS(=O)(=O)c2ccccc21)C(=O)OC(C)C(=O)Nc1ccc2c(c1)OCO2 (configuration not stated) | 100 | 102 | -1 | -2
O=CN1CCN(C(=O)CSc2ncnc3sccc23)CC1 | 99 | 104 | -18 | -11
COc1cc(O)cc(OC)c1 | 100 | 91 | -29 | -14
CCOC(=O)C1=C(CSCc2ccccc2)NC(=O)NC1CC (configuration not stated) | 98 | 100 | -12 | 4
N/C(CSc1nc2ccccc2s1)=N\O | 103 | 105 | 17 | -18
COc1ccc(/C=C/C(=O)NC2CCN(Cc3ccccc3)CC2)cc1OC | 104 | 109 | -22 | x
CCc1cc2c(=O)c(-c3nc4ccccc4[nH]3)c(CCC(=O)O)oc2cc1O | 94 | 96 | -6 | 8
CCN1CCN(C(=O)C(C)Sc2nc3nn(-c4ccccc4)c(=O)c-3c3n2CCCCC3)CC1 (configuration not stated) | 101 | 105 | 11 | -11
Cc1nnn(C23CC4CC(CC(C(=O)N5CCCCCC5)(C4)C2)C3)n1 | 102 | 102 | -7 | -5
O=C(O)c1cc(F)cc(C(F)(F)F)c1 | 105 | 106 | -14 | 13
NC(=O)C1CCN(C(c2ccccc2)c2nnnn2Cc2ccccc2)CC1 (configuration not stated) | 101 | 103 | -8 | -18
COCCCN=C1NS(=O)(=O)c2ccccc21 | 101 | 104 | -6 | 2
O=C(CSc1ccccn1)N1CCN(c2ccccc2)CC1 | 106 | 98 | x | 7
Cc1ccccc1NC(=O)CC1COc2ccccc2O1 (configuration not stated) | 102 | 103 | -3 | -37
CN(C)/C=C/C=C1\CC/C(=C\C=C\N(C)C)C1=O | 101 | 165 | 6 | -407
CC(NC(=O)c1cccs1)C(C)(C)C (configuration not stated) | 100 | 103 | -10 | -16
O=C(NCCO)c1ccc(N2C(=O)c3ccccc3C2=O)cc1 | 101 | 102 | 16 | 2
CCN1CCN(CCCNC(=O)Cc2ccc(NC(=O)N3CCCCc4ccccc43)cc2)CC1 | 101 | 101 | 5 | -15
C=CCNC(=O)c1ccc2c(c1)N(CC)C(=O)c1ccccc1S2 | 100 | 106 | 3 | -6
CCCCn1c(Cc2ccccc2)nnc1SCC(=O)OCC | 104 | 101 | -8 | -37
COc1ccc(Cn2ccc3nc(C)c(C(=O)N4CCN(C)CC4)cc3c2=O)cc1 | 101 | 103 | -32 | -18
O=C(CCSc1ccccc1)NC1CC1 | 102 | 97 | x | -22
CCOc1cc(/C=C2/SC(=S)N(C)C2=O)cc(Br)c1O | 80 | 192 | 13 | 11
O=C(Cn1[nH]c(=O)c2ccccc2c1=O)Nc1cccnc1 | 103 | 104 | 3 | -9
O=C(Cn1nnc2ccccc2c1=O)NCCOc1nnnn1-c1cccs1 | 100 | 102 | -8 | -18
CC(=Nc1ccc(S(=O)(=O)N2CCOCC2)cc1)Nc1ccc(C(=O)O)c(O)c1 | 121 | 171 | x | -23
N#C/C(=C(/O)CSc1ccccc1C(=O)O)c1nc2ccccc2s1 | 105 | 106 | -34 | -4
Cc1nn(-c2ccccc2)c(C)c1/C=N/NC(=O)CCc1ccc(S(=O)(=O)N2CCOCC2)cc1 | 104 | 108 | -13 | -7
CCc1ccc(NC(=O)C2CCN(c3ncccn3)CC2)cc1 | 103 | 101 | -3 | 1
O=S(=O)(Nc1nc(SCc2ccc(Cl)cc2)n[nH]1)c1ccc(F)cc1 | 103 | 100 | -3 | -18
Cc1ccc2nc(-c3ccc(NC(=O)C(C)N4CCN(C(=O)c5ccco5)CC4)cc3)sc2c1 (configuration not stated) | x | x | 96 | -17
O=C(CSc1nc2cc(Cl)ccc2s1)Nc1ccccc1Cl | 105 | 108 | -10 | x
N#CCCC(=O)c1ccccc1 | 98 | 100 | -16 | -34
CC1=C(C(=O)OCCc2ccccc2)C(c2ccc(N(C)C)cc2)NC(=S)N1 (configuration not stated) | 108 | 104 | x | -44
CCCCn1c(O)c(N=NC(=O)CNc2ccc(OC)cc2)c2ccccc21 | 104 | 104 | 18 | -57
Cc1ccc(-n2nnnc2-c2c[nH]c3cc(Cl)c(F)cc23)cc1 | 106 | 111 | -2 | -6
CC(=O)O/N=C(\N)Cc1csc2ccc(Cl)cc12 | 99 | 101 | -6 | -1
CC1CCCCN1CCNC(=O)c1ccc2c(Cl)c3c(nc2c1)CCCC3 (configuration not stated) | 101 | 103 | 2 | 4
C=CCN1C(=O)/C(=c2\sc3nc(-c4ccccc4)nn3c2=O)c2ccccc21 | 102 | 107 | -4 | -14
C/C(=N\O)C(=O)C(CN1CCCCC1)CN1CCCCC1 | 100 | 101 | 11 | 13
COc1ccc(C=C2C(=O)OC(c3ccccc3)OC2=O)c(OC)c1OC (configuration not stated) | 100 | 103 | -2 | -10
Cc1ccc(CC(=O)Nc2ccc(S(=O)(=O)NCc3ccco3)cc2)cc1C | 104 | 107 | -1 | -16
CCS(=O)(=O)c1cccc(C(=O)Nc2nc3c(s2)C(=O)CC(C)(C)C3)c1 | 105 | 102 | -7 | -43
CC1CCCN(C(=O)Cc2cccs2)C1 (configuration not stated) | 116 | 122 | x | 2
C[C@H]1CCC/C=C/C2C[C@H](O)C[C@H]2[C@H](O)/C=C/C(=O)O1 (some centres not stated) | 100&99 | 102&101 | -18 | 1
CN1Cc2ccccc2CC1C(=O)O (configuration not stated) | 101 | 102 | -3 | -9
CN(C)C(=O)COC(=O)c1oc2ccccc2c1COc1ccccc1 | 105 | 103 | 24 | 11
CN1C(=O)/C(=C/C=C2/CCCN2C)N(C)C1=S | 107 | 104 | 5 | -139
CS(C)=C1C(=O)NC(=O)N(CCc2ccc(F)cc2)C1=O | 104 | 101 | x | 6

(continued)
SMILES | PV pol inh | PV pol inh intensity | Mtb MbtI inh | Mtb MenB inh
CC(=O)NS(=O)(=O)c1ccc(NC(=O)C2CC(=O)N(c3ccc(F)cc3)C2)cc1 (configuration not stated) | 99 | 102 | 4 | 21
Cc1ccc(/C=N/n2c(-c3ccc(Cl)cc3)csc2=NCC2CCCO2)o1 (configuration not stated) | 101 | 104 | 10 | -60
Cc1sc2nc3n(c(=O)c2c1C)NC(=O)CC3 | 101 | 100 | -15 | 13
COc1ccc(-c2c(C)nn(-c3ccccc3)c2NC(C)=O)cc1OC | 106 | 110 | x | -10
Cn1c(C(=O)N2CCC(C(=O)O)CC2)cc2sccc21 | 103 | 100 | 10 | 1
CCO/C=C1/C(=O)N(c2ccc(S(=O)(=O)N3CCOCC3)cc2)C(=O)c2ccccc21 | 96 | 96 | 17 | -23
Cc1ccc(N(O)C(=O)Nc2ccccc2)cc1 | 104 | 99 | 9 | -18
O=C(N1CCN(c2ccccc2)CC1)n1ccnc1 | 101 | 96 | 1 | -43
COC(=O)c1cc(Oc2ccc(C(=O)OC)cc2N)cc(C(=O)OC)c1 | 103 | 113 | x | -18
Cn1c(NC2CC(=O)N(c3ccc(Cl)cc3Cl)C2=O)cc(=O)n(C)c1=O (configuration not stated) | 102 | 110 | x | 7
CC1CCCCN1S(=O)(=O)c1ccc(S(=O)(=O)N2CCN(c3ncccn3)CC2)cc1 (configuration not stated) | 104 | 102 | 34 | -1
Cc1cc2nc3c(=O)n(C)c(=O)[nH]c3nc2cc1N=CN(C)C | 78 | 133 | 14 | -137
Cn1cccc1/C=C1\CN(Cc2ccccc2)C/C(=C\c2cccn2C)C1=O | 71 | 198 | 8 | -84
COc1ccc(N(CC(=O)c2cc(C)n(C)c2C)S(=O)(=O)c2ccc3c(c2)OCCO3)cc1 | 106 | 98 | 28 | -12
COC(=O)C1=CN(C)C=C(C(=O)OC)C1c1ccc(C(C)C)cc1 | 102 | 102 | 46 | -2
S=C(c1cccc(Br)c1)N1CCNCC1 | x | x | 4 | -14
CCn1c(O)c(/C=C2/C=CC=N2)c(=O)[nH]c1=S | 100 | 107 | 15 | -35
CNC(=S)NNS(=O)(=O)c1ccc(Cl)cc1 | 101 | 105 | 6 | -8
O=C(NCc1ccc2c(c1)OCO2)Nc1ccc2ccccc2c1 | 101 | 95 | 19 | 10
Cc1ccc(-c2csc(C(C#N)=C3CCCC3)n2)cc1 | 100 | 100 | -8 | 38
NC(=O)NC(=O)CSc1nncn1-c1ccccc1 | 102 | 107 | -16 | -41
CN(CCC#N)C(=O)c1ccc2c(c1)N(Cc1ccc(F)cc1)C(=O)c1ccccc1S2(=O)=O | 101 | 98 | -1 | -9
c1ccc(-c2csc3ncn4cnnc4c23)cc1 | 105 | 107 | 3 | -18

Compounds as they come. Share with any hit: about 1.7%.
